Assay outcomes: PubChem, ICCB-Longwood Screening Facility, Harvard Medical School
HCMV UL50-53 inh = inhibitors of HCMV UL50-UL53 nuclear egress complex interaction. HTRF UL50-UL53 interaction, normalized percent inhibition. inhibition, % (no concentration beside the values). 190,000 tested, 0.15% active. AID 1918969;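 active = both replicates at 50% or more, plus weaker picks with an unusually low signal ratio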;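 also: stock transfer was 100 nL into about 20 µL; 0% = negative control wells and 100% = wells with untagged competitor protein; inactives centre near -12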
* = called active by the depositor; & = joins results of further samples; ! = a repeat was not active.

A first look, 3 compounds:
entry	Compound	HCMV UL50-53 inh
1	Cc1cccc(N/C=C(\C#N)c2nc(-c3ccc4c(c3)OCO4)cs2)c1	-2
2	Cn1c(Cn2cc(C(F)(F)F)ccc2=O)n[nH]c1=S	-17
3	CCOC(=O)c1c(-c2ccccc2)csc1NC(=O)c1ccccc1C(=O)O	-6

This part in full, previewed entries included:
entry	Compound	HCMV UL50-53 inh
1	Cc1cccc(N/C=C(\C#N)c2nc(-c3ccc4c(c3)OCO4)cs2)c1	-2
2	Cn1c(Cn2cc(C(F)(F)F)ccc2=O)n[nH]c1=S	-17
3	CCOC(=O)c1c(-c2ccccc2)csc1NC(=O)c1ccccc1C(=O)O	-6
4	CCOc1ccc(-c2cnc3n2CCC3)cc1	-24
5	COc1ccccc1/C=C1/SC(=O)N(CCC(=O)Nc2ccccc2)C1=O	-17
6	COc1ccccc1OCc1nc(-c2ccccc2)cs1	2
7	COc1ccc2nc(NC(=O)C3CCCCC3)sc2c1	-22
8	CSc1nc2ccc3nc(NC(=O)C4=COCCO4)sc3c2s1	-5&-1
9	CCCCCCC(=O)SC[C@H](COP(=O)([O-])OCC[N+](C)(C)C)SC(=O)CCCCCC	-19&-19
10	CCCCCCCCCCCCCCNC(=O)C1CCCCC1	-15&-15
11	COc1ccc(C(=O)NC(C)c2nc3ccccc3n2C)cc1OC (stereo not drawn)	12
12	CC(C)N(C(=O)c1cc(C(=O)c2ccccc2)c[nH]1)C(C)C	2
13	CCOc1ccccc1NC(=O)c1ccc(Cl)cc1	1
14	O=S(=O)(Cc1ccccc1)n1ccnc1	-18
15	O=C(/C=C/c1ccccc1)Nc1ccc2sccc2c1	-4
16	COCCn1c(=NC(=O)c2cccc(OC)c2)sc2cc(Br)ccc21	-6
17	CCCCn1c(CNC(C)=O)nc2ccccc21	-20
18	CN1CCc2nc(C(=O)NC3CC(C(=O)N(C)C)CCC3NC(=O)C(=O)Nc3ccc(Cl)cn3)sc2C1 (stereo not drawn)	-8
19	CC(C)(C)C(=O)Nc1ccc(-c2nc3ccccc3s2)c(O)c1	-13
20	Cc1ccc2cc(CCNC(=O)C3CC3)c(=O)[nH]c2c1	-8
21	Cn1nc(NC(=O)Cn2ccc(-c3ccco3)n2)c2ccccc21	-5&-5
22	CC(C)c1nnc(NC(=O)c2cc(Br)ccc2Cl)s1	-9
23	COc1ccccc1NC(=O)c1c(C)nc2ccccc2c1C(=O)O	0
24	CCCN1C(=O)/C(=C2\SC(=S)N(C)C2=O)c2cc(Br)ccc21	-3
25	C=CCNc1nc(-c2ccccc2)c(C(=O)Nc2cccnc2)s1	1
26	O=c1c2cccc(F)c2ncn1CCC1CCCCN1C1CCCC1 (stereo not drawn)	-13
27	O=C(O)CC(Sc1ncn[nH]1)c1ccc(Cl)cc1 (stereo not drawn)	1
28	Cc1nc(COP(=O)(O)O)cc(CN(CCN(CC(=O)O)Cc2cc(COP(=O)(O)O)nc(C)c2O)CC(=O)O)c1O.[Mn]	-59
29	Cn1cc(SCC(=O)Nc2ccc3c(c2)OCCO3)c2ccccc21	4
30	COc1c(S(=O)(=O)n2cnc(C)c2)ccc(Cl)c1Cl	-16
31	CC(=O)N(O)[C@@H]1c2cc(C#N)ccc2OC(C)(C)[C@H]1O	0
32	Oc1ccc(CNc2ccc(Cl)cn2)c2cccnc12	-9
33	COc1ccc2c(c1)CCN(C(=O)Nc1n[nH]c(-c3ccccc3F)n1)C2	-5&-5
34	Cc1ccc(Cn2ncc3c(Nc4ccc(C)cc4)ncnc32)cc1	-8
35	C=CCN1C(=O)/C(=C\c2ccccc2O)SC1=S	0
36	C=CC(=O)Nc1cccc(Nc2nc(Nc3ccc(Oc4ccnc(C(=O)NC)c4)cc3)ncc2F)c1	-10
37	COc1ccc(-c2nc3ncnn3cc2C)cc1F	-14
38	CNc1cc2c(Nc3cccc(Br)c3)ncnc2cn1	-14
39	CC(C)=CCNc1cc(C(=O)NCc2cn3ccccc3n2)cc(S(=O)(=O)NC(C)C)c1	-1
40	CC(=O)N1CCN(CC(O)COc2ccc(OCc3ccccc3)cc2)CC1 (stereo not drawn)	-9
41	NC(=Nc1ccc(F)cc1)NO	13&13
42	N#Cc1c(NC(=O)C2CC2)sc2c1CCC2	-5
43	CCOC(=O)c1c(NC(=O)CSc2nc(C)cc(C)n2)sc2c1CCC2	10
44	CCOc1ccc(C(=O)Nc2nnc(C(C)C)s2)cc1	-9
45	C[n+]1ccccc1/C=N/O	-23&-51
46	COc1ccc(S(=O)(=O)N2C(C)CCCC2C)cc1 (stereo not drawn)	3
47	Cn1cc(S(=O)(=O)CC(=O)N2CCCCCC2)c2ccccc21	-16
48	Cc1ccc(-c2csc3ncnc(SCCC(=O)O)c23)cc1	6
49	COc1cc(S(=O)(=O)NCc2ccco2)c(OC)cc1Br	-3
50	Cc1cccc(N2C(=O)CC(Sc3ncccc3C(=O)O)C2=O)c1 (stereo not drawn)	-12

Next section.
entry	Compound	HCMV UL50-53 inh
51	CNCc1cn(C2CCN(CCC(C)CCCC(C)(C)O)CC2)nn1 (stereo not drawn)	-8
52	NC(=O)c1sc2nc(C3CC3)cc(-c3cccs3)c2c1N	3
53	COc1ccc(Cl)cc1S(=O)(=O)NCc1cccnc1	4
54	CC1COc2c(C3(N)CC3)c(F)cc3c(=O)c(C(=O)O)cn1c23 (stereo not drawn)	-27
55	COC(=O)Cn1cc(S(=O)(=O)N2CCCC2)cc1C(=O)OC	20
56	CCC(C)C(=O)OC1CC(O)C=C2C=CC(C)C(CCC(O)CC(O)CC(=O)O)C21 (stereo not drawn)	-13
57	CCCC(C)N(CC)C(=O)c1ccc(C#CC(C)(C)O)o1 (stereo not drawn)	-20
58	NC(=O)c1cnc(NC2CCCCC2N)nc1Nc1cccc(-n2nccn2)c1 (stereo not drawn)	-2
59	CS(=O)(=O)N1CCN=C1SCc1cccnc1	-9
60	CCCc1cc(=O)oc2cc(OC(C)=O)cc(OC(C)=O)c12	-27
61	O=C(CSC1CCCCC1)Nc1ccc(F)cc1	-10
62	NC(=O)c1cc(Br)c(O)c(Br)c1	2
63	COc1ccc(C[C@@H]2NC(=O)[C@H]3CN(C(=O)Oc4ccc(Cl)cc4)CCN3C2=O)cc1	-10
64	CCOc1cc(OCC)c2c3c(c(=O)oc2c1)CCC3	0
65	Cc1cc(C)nc(SCc2nc3ncccn3c2Br)n1	0
66	CCC(CC)C(=O)Nc1nnc(-c2ccccc2)s1	-10
67	Cc1ccc(S(=O)(=O)c2nc(NC3CCS(=O)(=O)C3)sc2Cl)cc1 (stereo not drawn)	-7
68	NC(=O)c1c(NC(=O)C2=COCCO2)sc2c1CCCC2	2
69	Cc1cccc(OCC(O)CN2CC(C)CC(C)C2)c1 (stereo not drawn)	-9
70	Cc1ccc(C(=O)N(CCCN)C(c2nc3cc(Cl)ccc3c(=O)n2Cc2ccccc2)C(C)C)cc1 (stereo not drawn)	0
71	CCCS(=O)(=O)N1CCN(c2ccc(OC)cc2)CC1	-15
72	COc1cccc(-c2nc3sc4c(c3c(=O)o2)CCCC4)c1	2&-3
73	O=C(O)CSc1nnc(COc2ccccc2)n1-c1ccccc1	-19
74	Cc1nc2sc(C(c3cccc(F)c3)N3CCN(C)CC3)c(O)n2n1 (stereo not drawn)	-22
75	Cc1cc(C)nc(SC(C#N)c2ccccc2)n1 (stereo not drawn)	-3
76	O=C(CSc1nc2ccccc2c(=O)n1-c1ccccc1)c1ccccc1	6&-12
77	CC(=O)Nc1nc(COc2ccc3ccccc3c2)cs1	2
78	COc1ccc(C2Nn3c(C)nnc3SC2C(=O)c2ccc(Cl)cc2)cc1 (stereo not drawn)	0
79	CCC(=O)O[C@H](CC(=O)O)C[N+](C)(C)C	-71
80	Cc1ccc(NC(=O)CC#N)cc1	-17
81	O=C(Nc1ccc(-c2nc3ccccc3o2)cc1)C1CC1	-8
82	CCOc1ccc2nc(NC(=O)c3ccc(C)cc3)sc2c1	-7
83	O=C(O)c1ccccc1C(=O)Nc1ccc(Cl)cc1	-14
84	CCOC(=O)NC(=O)c1ccc2ccccc2n1	-24
85	CCN1CCN(Cc2oc(CO)cc(=O)c2O)CC1	7
86	Cc1ccc2c(C(=O)N(C)C(C)C)cc(-c3cnc(C(C)C)nc3)nc2c1	42&42
87	O=C(O)CC(NS(=O)(=O)c1ccc(Cl)cc1)c1ccco1 (stereo not drawn)	-3
88	COc1ccc(-c2[nH]ncc2-c2ccccc2)c(O)c1C	-5
89	Cc1ccc(/C=C/C(=O)O)cc1S(=O)(=O)NCCO	-1
90	Cc1c(C(F)(F)F)nc(-c2ccc(CN(C)C)cc2)[nH]c1=O	-18
91	O=C(NCCc1c[nH]c2ccccc12)c1ccco1	-18
92	C=C1c2c(Cl)ccc(O)c2C(O)=C2C(=O)[C@]3(O)C(O)=C(C(N)=O)C(=O)[C@@H](N(C)C)[C@@H]3[C@@H](O)C12 (stereo partly drawn)	-26
93	NC1=NC(=O)C(CC(=O)Nc2ccccc2SC(F)(F)F)S1 (stereo not drawn)	-16
94	Cn1c(=NC(=O)c2cccc3ccccc23)sc2cc(S(C)(=O)=O)ccc21	4
95	CCn1c(COc2ccc(Cl)c3cccnc23)nnc1SC	-3
96	Cc1nc(-c2ccc3ccccc3n2)cn1Cc1ccc(F)cc1	4
97	CC(C)(C)c1cc(O)c(C(C)(C)C)cc1O	7&-9
98	COc1ccc(CCNc2nc3ccccc3s2)cc1OC	-6
99	CC(C)C(=O)Nc1ccc(-c2nc3ccccc3[nH]2)cc1	5
100	O/N=C/c1nc(-c2ccccc2)n2ccccc12	-30&-34

Continued.
entry	Compound	HCMV UL50-53 inh
101	COc1[nH]c2ccc(F)cc2c1C(=O)OCC1CCN(CCNS(C)(=O)=O)CC1	8
102	COc1cccc2c1C(=O)c1c(O)c3c(c(O)c1C2=O)C[C@@](O)(C(C)=O)CC3O[C@H]1CC(N)C(O)C(C)O1 (stereo partly drawn)	-249
103	CC1CCN(S(=O)(=O)c2ccc(/C=C/C(=O)O)cc2)CC1	2
104	Cc1c(C#N)c(Sc2ccccc2NC(=O)c2ccccc2)nc2ccccc12	16
105	CC/C=C/C[C@H](O)/C=C/[C@H]1[C@H](O)CC(=O)[C@@H]1C/C=C\CCCC(=O)O	-19&-19
106	O=C(CSc1nccn1-c1cccc(Cl)c1)NC1CCCC1	-12
107	CCCNS(=O)(=O)c1ccc(NC(=O)c2ccncc2)cc1	-10
108	C=C[C@@]1(C)CC(=O)[C@]2(O)[C@@]3(C)[C@@H](O)CCC(C)(C)[C@@H]3[C@H](O)[C@H](OC(C)=O)[C@@]2(C)O1	-3
109	CC1(C)S[C@@H]2[C@H](NC(=O)[C@H](N)c3ccc(O)cc3)C(=O)N2[C@H]1C(=O)O	-19&-14
110	N#Cc1c(NC(=O)CSc2nnc3ccccn23)sc2c1CCC2	-2
111	CCOC(Cn1c(COc2ccccc2)nc2ccccc21)OCC	7&-11
112	CNC(=O)c1cc(Oc2ccc3nc(Nc4ccc(Cl)c(C(F)(F)F)c4)[nH]c3c2)ccn1	0
113	COc1ccc(OCC(=O)N(c2ccccc2)C(C)C)cc1	-5
114	CC(C)OC(=O)CCC/C=C\C[C@@H]1[C@@H](/C=C/[C@@H](O)CCc2ccccc2)[C@H](O)C[C@@H]1O	-22&-22
115	COc1c2ccoc2nc2c(OC)c(OC[C@@H](O)C(C)(C)O)ccc12	-49
116	O=C(O)CCCSc1ncnc2sc3c(c12)CCCC3	4
117	CCSc1nnc(NC(=O)c2ccccc2Cl)s1	4
118	CCc1cc(-c2nc(N)ncc2-c2cscn2)c(O)cc1OC	-9
119	CCOC(=O)c1sc(NC(=O)c2ccco2)nc1-c1ccccc1	-14
120	O=C(Nc1ccon1)c1sc2cc(F)ccc2c1Cl	-10

Three compounds out of the list, sorted by molecular weight, low to high.
entry	Compound	HCMV UL50-53 inh
116	O=C(O)CCCSc1ncnc2sc3c(c12)CCCC3	4
119	CCOC(=O)c1sc(NC(=O)c2ccco2)nc1-c1ccccc1	-14
115	COc1c2ccoc2nc2c(OC)c(OC[C@@H](O)C(C)(C)O)ccc12	-49

Carrying on.
entry	Compound	HCMV UL50-53 inh
121	O=C(O)Cn1c2ccc(Cl)cc2c2nc3ccccc3nc21	-91&-39
122	NC(=O)C(CCC(F)(F)F)N(Cc1ccc(-c2ncon2)cc1F)S(=O)(=O)c1ccc(Cl)cc1 (stereo not drawn)	-1
123	O=C(O)c1ccc2c(c1)NC(=O)C(CSCc1ccccc1Cl)N2 (stereo not drawn)	-30
124	O=C1C(C2=C3C(=Nc4ccccc43)/C(=C\c3ccc(O)cc3)C2=O)=C2C(=Nc3ccccc32)/C1=C\c1ccc(O)cc1	5
125	CCOC(=O)c1nc(C)nc(Sc2n[nH]c(-c3cc(C(F)(F)F)cc(C(F)(F)F)c3)n2)c1C	-13
126	N#Cc1c(N)nc(SCC(N)=O)c(C#N)c1-c1ccc(Cl)cc1	10
127	COc1ccc(OC)c(S(=O)(=O)NC(C)c2ccccc2)c1 (stereo not drawn)	8&1
128	c1ccc(Cn2cnc3ccccc32)cc1	0
129	COc1ccc(C(=O)NCCn2ccc3ccccc32)cc1	4
130	Cc1nsc(NC(=O)NCc2cc(Cl)ccc2Cl)n1	0
131	O=C(/C=C/c1ccc(Br)o1)/C=C/c1ccc(Br)o1	3
132	CC/C=C\C/C=C\C/C=C\C/C=C\CCCCCCC(=O)OCC	0&0
133	O=C(O)C=Cc1ccc(O)c(O)c1	-21&-31
134	O=C(O)/C=C/c1nc(-c2ccccc2)n2ccccc12	-56&-59
135	CCCS(=O)(=O)NCc1ccc2[nH]c(C)cc2c1	-18
136	O=C(O)CCCCC(CCSCc1ccccc1)SCc1ccccc1 (stereo not drawn)	-4
137	CCCCCCCC/C=C\CCCCCCCCCCCCCC(=O)N[C@@H](CO)[C@H](O)/C=C/CCCCCCCCCCCCC	-24&-24
138	Cc1ccc(NC2=CC(=O)c3sc(C)nc3C2=O)cc1	103*!
139	Cc1nn2c(=O)c3ccc(C(=O)N4CCN(c5ccc(F)cc5)CC4)cc3nc2s1	-9
140	CCCNC(=O)c1cc(-c2ccccc2)n[nH]1	-6
141	Cc1ccc(-c2[nH]c3ccccc3c2SCCN)cc1	-14

Not all compounds are listed. The share of hits here may be higher or lower than overall.
